Cruzain noTriton: qHTS Assay for Promiscuous and Specific Inhibitors of Cruzain (without detergent); hit rate 2.3% among 200,000; purified cruzain, Z-FR-AMC fluorescence, no detergent; Potency, µM, without a hit: max response, negative = inhibition, hits mostly inhibitors; Cruzipain (Trypanosoma cruzi), P25779; AID 1476, 2009; active means well fitted curve in the direction sought with a large enough effect; inconclusive means small, poorly fitted or top-dose-only effect, or another doubt; inactive means no such curve, though single readings can be large; an effect the other way counts as inactive or inconclusive;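 further: plate controls were enzyme without inhibitor for no effect and buffer without enzyme for full effect; nearly all actives have a fitted effect of over 40% in size; top concentration of the series not given in the record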
Target sequence (P25779 123-467 limits assumed): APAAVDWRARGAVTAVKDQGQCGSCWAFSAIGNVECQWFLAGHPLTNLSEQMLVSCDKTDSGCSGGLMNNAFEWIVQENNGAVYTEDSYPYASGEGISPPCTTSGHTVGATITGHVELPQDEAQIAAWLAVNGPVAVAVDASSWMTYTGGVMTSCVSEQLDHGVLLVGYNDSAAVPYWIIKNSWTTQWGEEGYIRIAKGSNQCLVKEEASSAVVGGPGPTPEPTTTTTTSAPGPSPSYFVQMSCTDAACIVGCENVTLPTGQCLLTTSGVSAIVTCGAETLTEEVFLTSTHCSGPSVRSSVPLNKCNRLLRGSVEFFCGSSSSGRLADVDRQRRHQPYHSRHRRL
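Detergent-free condition (0.00005% Triton X-100) in acetate buffer pH 5.5 with DTT. 1.5 nM enzyme and compound were pre-mixed 15 min, then 2 uM Z-FR-AMC substrate added; reaction progress from fluorescence change between first and third reads (60 s).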
2A StopGo: High Throughput Screening for Foot and Mouth Disease Virus Antivirals; human cells with a luciferase reporter of 2A StopGo recoding; control for the full effect not named in the record; Potency, µM (titrated, usually from 57.9 µM), inactives show at the highest dose signal change, negative = less light; hit rate 1.2% among 410,000; AID 1159524, 2015; active = well fitted falling curve with a large enough effect; inconclusive = small, poorly fitted or top-dose-only effect; inactive = no such curve, though single readings can be large or run the other way; tested in HEK293T cells; further: on the % scale 0 is the no-effect control and ±100 the full control effect; nearly all actives have a fitted effect of over 45% in size; luciferase light after 4 h
SARS PLP yeast: qHTS of Yeast-based Assay for SARS-CoV PLP; S. cerevisiae expressing SARS-CoV PLpro, growth rescue; control for the full effect not named in the record; Potency, µM (doses to about 32.9 µM), for inactives: at the top dose activity, positive = growth rescue; hit rate 0.19% among 330,000; further: 0% is about no effect; nearly all actives have a fitted effect of over 55% in size; growth read by luminescence after 48 h
MARV entry inh: qHTS for inhibitors of binding or entry into cells for Marburg Virus. Marburg virus pseudotyped entry inhibition, cell reporter; control for the full effect not named in the record; about a third of the inactives were read at about 46 µM. Potency, µM (doses to about 37.8 µM), without a hit: top-dose activity change, negative = inhibition, usual class: inhibitors. hit rate 1.8% among 300,000; active = well fitted inhibition curve with a large enough effect; inconclusive = small, poorly fitted or top-dose-only effect, or effect the other way; inactive = flat fitted curve, though single readings scatter; tested in HEK293 cells; about a fifth of its hits are not listed in these tables; further: on the % scale 0 is the no-effect control and ±100 the full control effect; luciferase read-out
NS1 function inh: qHTS Assay for Inhibitors of Influenza NS1 Protein Function. AID 2326, 2010. hit rate 0.4% among 270,000. Potency, µM (doses to about 46.1 µM), for the others: at the top dose activity, positive = more growth. S. cerevisiae slowed by influenza A NS1, growth recovery by OD600; further: actives are rising curves; nearly all actives have a fitted effect of over 50% in size
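Read-out: OD600 growth recovery of NS1-expressing budding yeast. Cells grown overnight at 30C in -URA glucose medium, washed, resuspended and diluted 1:100 in 2% galactose assay medium, pH 6.0. Same strain lacking NS1 served as positive control.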
RE007 growth inh: qHTS Assay for Inhibitors of the HIV-1 protein Vpr. S. pombe RE007 Vpr strain, BacTiter-Glo ATP luminescence, 24 h; control for the full effect not named in the record. Potency, µM (titrated, usually from 92.2 µM), for inactives: at the highest dose activity change, negative = less growth. hit rate 0.21% among 360,000; active = well fitted falling curve with a large enough effect; inconclusive = small, poorly fitted or top-dose-only effect; inactive = no such curve, though single readings can be large or run the other way;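 further: on the % scale 0 is the no-effect control and ±100 the full control effect; nearly all actives have a fitted effect of over 50% in size; the assay follows cell death caused by Vpr and the record does not say whether a fall means rescue or toxicity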
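Fission yeast strain RE007, carrying one chromosomally integrated HIV-1 vpr copy, was seeded at OD 0.01 in PMG+AL medium with 23 nL pinned compound. After 24 h at 30 °C and 99% humidity, viability was read by BacTiter-Glo luminescence.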
LASV entry inh: qHTS for Inhibitors of binding or entry into cells for Lassa Virus. Lassa virus pseudotype entry inhibition, cell reporter; control for the full effect not named in the record. hit rate 1.2% among 300,000. Potency, µM (titrated, usually from 37.9 µM), for the others: at the highest dose activity change, negative = inhibition, most hits filed as inhibitors; active means well fitted inhibition curve with a large enough effect; inconclusive means small, poorly fitted or top-dose-only effect, or effect the other way; inactive means flat fitted curve, though single readings scatter; tested in HEK293 cells; further: on the % scale 0 is the no-effect control and ±100 the full control effect; nearly all actives have a fitted effect of over 50% in size; luciferase read-out
Cruzain Triton: qHTS Assay for Promiscuous and Specific Inhibitors of Cruzain (with detergent); Cruzipain (Trypanosoma cruzi), P25779; purified cruzain, Z-FR-AMC fluorescence, 0.01% Triton; Potency, µM, for inactives: max response, negative = inhibition, actives largely listed as inhibitors; hit rate 0.43% among 200,000; AID 1478, 2009; active means well fitted curve in the direction sought with a large enough effect; inconclusive means small, poorly fitted or top-dose-only effect, or another doubt; inactive means no such curve, though single readings can be large; an effect the other way counts as inactive or inconclusive;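 further: plate controls were neutral wells for no effect and buffer without enzyme for full effect; nearly all actives have a fitted effect of over 40% in size; top concentration of the series not given in the record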
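Detergent-containing arm of a paired screen for aggregation-based inhibition: 0.01% Triton X-100 present. Cruzain at 1.5 nM cleaved 2 uM Z-FR-AMC at pH 5.5 with 5 mM DTT; AMC fluorescence gain over 60 s measured activity.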
* hit, by the source's call; ? = inconclusive; / = no result given; & = joins results of further samples; [ ] = dose if it differs, or a comment. Unless noted, the call rests on the fitted dose curve; in most records, active means well fitted rising curve with a large enough effect; inconclusive means small, poorly fitted or top-dose-only effect; inactive means no such curve, though single readings can be large or run the other way. Potency means the concentration at half of the fitted maximal effect.

SMILES	Cruzain noTriton	2A StopGo	SARS PLP yeast	MARV entry inh	NS1 function inh	RE007 growth inh	LASV entry inh	Cruzain Triton
C=CCn1c(CNC(=O)c2ccco2)nnc1SCC(=O)c1ccc(OC)cc1	/	-6%	0%	?	2%	-11%	9%[46.1 µM]	/
CCCN(CCC)C(=O)c1cc([N+](=O)[O-])cc2c1-c1ccc([N+](=O)[O-])cc1C2=C(C#N)C#N	/	?	0%	/	1%	1%	/	/
CCc1c(C)c2ccc(O)c(CN3CCN(c4ccc(F)cc4)CC3)c2oc1=O	-5%	?	/	1%[46.1 µM]	/	/	5%[46.1 µM]	-1.3%
COc1ccc(C)cc1N(C(=O)c1ccccc1F)c1nc2ccccc2s1	1.6µM*	-6%	-21%	?	?	-1%	-18%	-5.2%
CCn1c(=O)c(C(=O)NCCc2ccc(Cl)cc2)c(O)c2ccccc21	/	-17%	2%	/	16%	23%	/	/
CC(=O)Nc1ccc(-n2cnnn2)cc1	-5%	4%	-1%	-24%	-1%	14%	1%	1.2%
CCCCOC(=O)c1ccc(NC(=O)COC(=O)CN2C(=O)NC3(CCCC3)C2=O)cc1	/	17%	/	22%	/	4%	11%	/
COc1cc(C(=O)Nc2cc(-c3cn4cccnc4n3)ccc2C)cc(OC)c1OC	/	-2%	2%	/	/	-3%	3%	/
Cc1ccc(SCc2noc(C(=O)NCC3CCCO3)c2C(=O)O)cc1C (stereo not drawn)	11%	-10%	1%	/	7%	-4%	/	0.6%
Cc1ccc(CN2C(=O)COc3cc(NS(C)(=O)=O)ccc32)cc1	/	-20%	/	?	/	0%	?	/

Among those listed so far, four contain four or more nitrogen atoms.
SMILES	Cruzain noTriton	2A StopGo	SARS PLP yeast	MARV entry inh	NS1 function inh	RE007 growth inh	LASV entry inh	Cruzain Triton
C=CCn1c(CNC(=O)c2ccco2)nnc1SCC(=O)c1ccc(OC)cc1	/	-6%	0%	?	2%	-11%	9%[46.1 µM]	/
CCCN(CCC)C(=O)c1cc([N+](=O)[O-])cc2c1-c1ccc([N+](=O)[O-])cc1C2=C(C#N)C#N	/	?	0%	/	1%	1%	/	/
CC(=O)Nc1ccc(-n2cnnn2)cc1	-5%	4%	-1%	-24%	-1%	14%	1%	1.2%
COc1cc(C(=O)Nc2cc(-c3cn4cccnc4n3)ccc2C)cc(OC)c1OC	/	-2%	2%	/	/	-3%	3%	/

Of the compounds above, these contain an aryl thioether with sulfur outside any ring.
SMILES	Cruzain noTriton	2A StopGo	SARS PLP yeast	MARV entry inh	NS1 function inh	RE007 growth inh	LASV entry inh	Cruzain Triton
C=CCn1c(CNC(=O)c2ccco2)nnc1SCC(=O)c1ccc(OC)cc1	/	-6%	0%	?	2%	-11%	9%[46.1 µM]	/
Cc1ccc(SCc2noc(C(=O)NCC3CCCO3)c2C(=O)O)cc1C (stereo not drawn)	11%	-10%	1%	/	7%	-4%	/	0.6%

New compounds follow:
SMILES	Cruzain noTriton	2A StopGo	SARS PLP yeast	MARV entry inh	NS1 function inh	RE007 growth inh	LASV entry inh	Cruzain Triton
Nc1[nH]n(-c2ccccc2)c(=O)c1N=Nc1ccc2c(c1)OCO2	/	29%	-1%	/	0%	-15%	/	/
COc1cc(CNc2ccc(N3CCOCC3)cc2)ccc1OCC(=O)NC(C)(C)C	/	?	-4%	/	8%	6%	/	/
COc1cc2c(cc1OC)CN(C(=O)CSc1ccccc1C)CC2	/	?	1%	16%	/	6%	2%	/
CCOC(=O)c1cc(C(=O)OCC)c(=O)[nH]c1SCc1ccccc1	/	-9%	-3%	/	-31%	8%	/	/
S=c1[nH]nc(COc2ccccc2)n1/N=C/c1ccc(Cl)cc1	/	-9%	0%	26%[46.1 µM]	-1%	7%	?	/
CC(=O)N1CCc2cc(S(=O)(=O)NC3CCCCC3)ccc21	/	55%[activator]	-9%	-1%[46.1 µM]	17%	6%	?	/
CCS(=O)(=O)N1CCC(C(=O)NCCCN2CCN(c3ccccc3F)CC2)CC1	7%	/	2%	-18%	3%	-9%	-8%	5.5%
CC1(C)CC(=O)C2=C(C1)Oc1ncn(CCCO)c(=N)c1C2c1ccccc1 (stereo not drawn)	-1%	3%	-4%	4%	5%	-7%	-17%	1.0%
CCOC(=O)C1=C(C)N=C2SCCC(=O)N2C1c1ccc(C(=O)OC)cc1 (stereo not drawn)	4%	-13%	-2%	-12%	3%	1%	?	-4.9%
CC(C)Cc1nnc(NC(=O)CN2C(=O)NC3(CCCCC3)C2=O)s1	/	-29%	3%	/	13%	22%	/	/
CC(Sc1nccn1C)C(=O)Nc1ccc(Cl)cn1 (stereo not drawn)	/	24%	1%	14%[46.1 µM]	/	16%	28%	/
O=C(Nc1nccs1)c1ccc(-c2ccc(F)c(Cl)c2)o1	/	12%	-1%	/	-2%	-11%	/	/
O=C(O)Cn1c(SCCOc2ccc(Cl)cc2)nc2ccccc21	/	3%	-1%	-4%	11%	12%	11%	/
Cc1ccc2nc(-c3ccccc3)cc(C(=O)O)c2c1	8%	17%	-1%	-26%	-11%	0%	-1%	-2.3%
CC(C)Oc1ccc(OCCn2c(=S)[nH]c3c(N)ncnc32)cc1	/	102%[activator]	-2%	24%	/	-6%	2%	/
COc1ccccc1N1CCN(c2csc3ccccc3c2=O)CC1	-8%	23%	/	/	/	/	1%[46.1 µM]	-4.6%
COC(=O)c1cc(S(=O)(=O)NCc2cccc(Br)c2)c[nH]1	/	54%[activator]	4%	/	-2%	1%	/	/
C/C=C/C(=O)OCC(=O)Nc1cccc(S(=O)(=O)NC2=NCCCCC2)c1	/	-3%	0%	?	/	2%	23%[46.1 µM]	/
CCN1C(=O)[C@H]2[C@@H](c3ccc(OC)cc3)N3C(=O)CN(CCOC)C(=O)[C@@]3(C)[C@H]2C1=O	/	-10%	-8%	/	-6%	4%	/	/
COC(=O)CNC(=O)CCc1nnc(C2(c3ccc(Cl)cc3)CCC2)o1	/	39%[activator]	0%	/	-4%	1%	/	/
Cc1ccc(-n2c(Cc3cccn3C)nnc2SCC(=O)Nc2nnc(C)s2)cc1	3%	0%	-5%	4%	4%	17%	9%	3.5%
COC(=O)CN1CC(=O)N(c2ccccc2)C1=S	/	15%	-8%	-4%[46.1 µM]	4%	-6%	-4%	/
COc1ccc(Nc2cc(Cl)nc(N)n2)cc1	/	14%	-1%	-29%[46.1 µM]	/	-2%	13%[46.1 µM]	/
CCOC(=O)Nc1ccc2c(c1)N(C(=O)OC)c1ccccc1CC2	-5%	-6%	-17%	-24%	-71%	34%	?	0.7%
CCOC(=O)c1c(NC(=O)CCN2CCOCC2)sc2c1CC(C)(C)OC2	5%	-24%	3%	22%&22%	-14%	4%	-23%	3.5%
NC(=S)NNC(=O)Nc1cccc(Cl)c1	-18%	-23%	-16%	?	8%	3%	0%	-23%
CCOc1ccc(/C=N/n2c(-c3ccccc3)n[nH]c2=S)cc1	/	-2%	3%	/	9%	18%	/	/
CC1CN=C(N(C(=O)Nc2ccccc2)C(C)C)S1 (stereo not drawn)	14%	-2%	19%	?	1%	-7%	30%	-1.7%
Cc1ccc(SCc2ccc(C(=O)NCc3ccncc3)cc2)cc1	-12%	/	-6%	?	4%	17%	-10%	4.9%
CCOC(=O)C1(Cc2cccc(OC)c2)CCCN(C(=O)c2ccc(OC)o2)C1 (stereo not drawn)	/	67%[activator]	1%	28%	14%	-11%	3%	/
O=C(CSCC(=O)NC1CC1)Nc1ccccc1	7%	-15%	4%	-3%	-8%	-4%	9%	-1.4%
O=C(NCc1ccc(F)cc1)c1ccc(N2CCOCC2)c([N+](=O)[O-])c1	/	-12%	0%	/	-1%	3%	/	/
O=C(N/N=C/c1ccc(-c2cccc(C(F)(F)F)c2)o1)c1cccc(F)c1	1%	-16%	-17%	?	6%	-26%	?	-12%
Cc1ccc(CN2C(=O)C(O)(c3c[nH]c4ccccc34)c3cc(Cl)ccc32)cc1 (stereo not drawn)	-1%	-2%	/	?	/	/	?	-10%
Cc1ccc(C(=O)CSc2nnc(COc3cccc4cccnc34)o2)cc1	4%	/	-9%	-6%	-44%	-17%	5%	-6.9%
O=C(NCCc1ccncc1)c1ccccc1F	-3%	22%	-3%	12%	-1%	10%	23%	0.7%
Cc1nc(C)c2c(c1C(F)(F)F)-c1ccccc1C2(F)F	-7%	/	-1%	4%	-7%	-9%	24%	-1.1%
Cc1nc2ccc(S(=O)(=O)NCC(=O)O)cc2s1	-11%	-3%	2%	16%	3%	-1%	4%	2.1%
NC(Cc1ccccc1)c1nn[nH]n1 (stereo not drawn)	/	-6%	/	20%[46.1 µM]	/	-5%	0%[46.1 µM]	/
COc1ccc(CC(=O)OCC(=O)Nc2cccc(Br)c2)cc1	/	-11%	-2%	2%[46.1 µM]	/	4%	2%	/
CCc1nc2nc(C)cc(Nc3cc(C)ccc3C)n2n1	0%	-9%	/	-16%[46.1 µM]	/	/	-7%[46.1 µM]	-1.5%
COc1cc(C)c(C)cc1S(=O)(=O)NC1CC(C)(C)NC(C)(C)C1	/	15%	1%	20%[46.1 µM]	9%	-2%	8%[46.1 µM]	/
CCOC(=O)c1ccccc1NC(=O)CSc1cn(CC(=O)N2CCOCC2)c2ccccc12	13%	-2%	/	/	/	/	11%[46.1 µM]	-1.7%

Screening data from PubChem BioAssay.
